# Source: PubChem BioAssay
# HSD17B inhib: blocks hydroxysteroid 17-beta dehydrogenase activity; 75,000 tested, 7.6% active; Potency, µM (doses to about 57.1 µM), for the others: top-dose activity change, negative = inhibition, most hits filed as inhibitors; Q99714; recombinant HSD17B10, NADH fluorescence kinetic; many of its hits are not listed in these tables; active = well fitted inhibition curve with a large enough effect;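 note: the protocol describes HADH2 (HSD17B10) and not the HSD17B4 of the title; nearly all actives have a fitted effect of over 70% in size; most hits overshoot -100% by far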
#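 His-tagged E. coli-expressed HADH2 at 20 nM in 100 mM Tris-HCl pH 9.0 with 0.01 % Tween-20, preincubated 15 min with compound at room temperature. Reaction with 1 mM NAD+ and 90 uM beta-hydroxybutyryl coenzyme A; NADH fluorescence (360/450 nm) read kinetically over 4 min, last minus first point.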
# The depositor's hits bear a star; [ ] = dose if it differs, or a comment. % is set by controls: 0 for no effect and ±100 for the full control effect; potency is the fitted concentration of half-maximal effect. Not all compounds are listed; rates above refer to the full screens.
entry	SMILES	HSD17B inhib
1	O.O.[NH-]C1(C(=O)O)CCCC1.[NH-]C1(C(=O)O)CCCC1.[Ni+2]	1.1%[11.4 µM]
2	O=S(=O)(NCCO)c1cc[c]([Sb](=[O])([OH])[OH])cc1	-6.3%[11.4 µM]
3	Cc1ccccc1-c1nc(CS(=O)CC(=O)N2CCC3(CC2)OCCO3)c(C)o1 (stereo unspecified)	-15.7%
4	Cc1cccn2c(=O)c3c(nc12)N1CCC(Cc2ccccc2)CC1C1(C3)C(=O)N(C)C(=O)N(C)C1=O (stereo unspecified)	-1.2%
5	CCCN(CCC)CCc1c[nH]c2ccc(C(N)=O)cc12	10µM*
6	CC(C)CN1CC[C@@]2(CCCN(C(=O)Oc3ccccc3)C2)C1	3.2%
7	CC1N(P(=O)(c2ccccc2)c2ccccc2)CC(O)(c2ccccc2)CC12CC2 (stereo unspecified)	-9.4%
8	c1ccc(C2=NP(N3CCOCC3)(N3CCOCC3)=NC(N3CCOCC3)=N2)cc1	1.7%
9	C[N+]1(C)[C@@H]2CC[C@H]1CC(OC(=O)[C@@H](CO)c1ccccc1)C2 (stereo partly specified)	-3.4%[25.6 µM]
10	COc1cc(N)c(Cl)cc1C(=O)N[C@@H]1CN2CCC1CC2	-7.7%
11	COc1ccc(CCn2c(O)c(C=NCc3ccc4c(c3)OCO4)c(=O)[nH]c2=O)cc1OC	-0.7%
12	Cc1ccc(S(=O)(=O)Nc2cc(C(=O)N3CCC4(CC3)OCCO4)ccc2N2CCCCC2)cc1	-13.1%
13	CN1CCC2(CC1)CCN(C(=O)c1ccco1)CC2	17.7%
14	CCCCCCCCCCCCCl	-2.6%
15	NC(=O)CN1CC(c2ccccc2)CC1=O (stereo unspecified)	1.1%
16	CC(=O)C1C2c3ccccc3OC1(C)N=c1s/c(=C/c3cnn(C)c3)c(=O)n12 (stereo unspecified)	1.0%
17	ClC(Br)Br	5.4%

# Some of the entries above in a different format.
[11] COc1ccc(CCn2c(O)c(C=NCc3ccc4c(c3)OCO4)c(=O)[nH]c2=O)cc1OC
  HSD17B inhib: -0.7%
[12] Cc1ccc(S(=O)(=O)Nc2cc(C(=O)N3CCC4(CC3)OCCO4)ccc2N2CCCCC2)cc1
  HSD17B inhib: -13.1%
[13] CN1CCC2(CC1)CCN(C(=O)c1ccco1)CC2
  HSD17B inhib: 17.7%
[14] CCCCCCCCCCCCCl
  HSD17B inhib: -2.6%

# Two entries from above in a different format.
11) COc1ccc(CCn2c(O)c(C=NCc3ccc4c(c3)OCO4)c(=O)[nH]c2=O)cc1OC
  HSD17B inhib: -0.7%

13) CN1CCC2(CC1)CCN(C(=O)c1ccco1)CC2
  HSD17B inhib: 17.7%
